Assay outcomes from PubChem.
GIV-Gai inh = inhibitors of GIV peptide binding to Galpha-i3, primary screen, biochemical, fluorescence polarization, FITC-GIV GBA peptide, rat Galphai3; 90 min; hits give low values; scaled: aluminum fluoride 0%, vehicle 100%; Guanine nucleotide-binding protein G(i) subunit alpha-3 (Rattus norvegicus), P08753; actives 0.42% (n = 210,000); percent of control (FP), % (no concentration beside the values); AID 1224905, 2016;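 active = replicate mean at 85% of control or lower, very high polarization wells dropped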;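 also: wells of about 15 µL received 100 nL stock; the first replicate is given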
Target sequence (P08753 whole entry, looked up): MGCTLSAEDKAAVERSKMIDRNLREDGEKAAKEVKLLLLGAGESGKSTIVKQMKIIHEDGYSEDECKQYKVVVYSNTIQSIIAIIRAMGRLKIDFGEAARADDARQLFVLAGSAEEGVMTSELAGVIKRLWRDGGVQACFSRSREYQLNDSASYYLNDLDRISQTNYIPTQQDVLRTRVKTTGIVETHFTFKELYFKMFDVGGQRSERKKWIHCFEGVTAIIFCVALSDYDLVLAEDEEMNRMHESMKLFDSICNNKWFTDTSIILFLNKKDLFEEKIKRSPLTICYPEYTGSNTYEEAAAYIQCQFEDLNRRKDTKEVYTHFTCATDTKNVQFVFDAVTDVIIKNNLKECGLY
* = called active by the depositor. A portion of the library; rates above refer to the full screens.

GIV-Gai inh | Molecule
107 | CCc1cc(C2CCCN2S(=O)(=O)c2ccc(C)c(C)c2)on1 (stereo not drawn)
104 | COc1ccc(Cl)cc1NC(=O)c1cccc(-c2cc(Oc3ccccc3OC)ncn2)c1
107 | O=C(c1sc2ncccc2c1-n1cccc1)N1CCSCC1
107 | COc1cc(C=C2C(=O)N(C)C(=O)N(C)C2=O)ccc1Oc1nc(N2CCOCC2)nc(N2CCOCC2)n1
107 | COC(=O)C1=C(C(=O)OC)SC(=C2C(=S)C(C)(C)N(C(=O)CC(C)C)c3ccc(C)cc32)S1
105 | CC(=O)Nc1ccc(-c2noc(C3CCCN(C(=O)c4ccc(C)c(C)c4)C3)n2)cc1 (stereo not drawn)
103 | CCCc1cc(C2CCCN2Cc2cccc(F)c2F)no1 (stereo not drawn)
102 | CCN(CC)c1c([N+](=O)[O-])c(=O)n(C)c2ccccc12
105 | CCc1nc2c(c3c1[nH]c1ccccc13)C(=O)CC(C)(C)C2
104 | COCc1cc(C)c(C#N)c(SCC(=O)C23CC4CC(CC(C4)C2)C3)n1
107 | Cc1cccc(C)c1-n1nnnc1C(C)(C)N
98 | c1cc2nnc(C3CCC3)n2nc1NCC1CCCO1 (stereo not drawn)
96 | CCOc1cc(C2Nc3ccc(OC)cc3[C@H]3OCCC[C@@H]23)cc(Br)c1OC (stereo partly drawn)
114 | Cc1noc(C)c1C1CCCN1C(=O)c1cc(-c2ccco2)on1 (stereo not drawn)
109 | Cc1nc(N2CCCC2)c2c(C)c(C(=O)N3CCOCC3)sc2n1
102 | CCOC(=O)C1(C)C=C(Nc2cccc(C(F)(F)F)c2)C(=O)N1c1ccccc1 (stereo not drawn)
100 | Cc1ccc(C(=O)NCC(=O)Nc2cc(-c3nc(C)cs3)sc2C)cc1
101 | Clc1ccc(-c2noc(CSc3nccn3-c3ccccc3)n2)cc1
100 | CCCC(=O)Nc1nc2ccc(S(=O)(=O)N(CC)CC)cc2s1
106 | COc1ccc2oc(-c3noc(-c4ccnn4C)n3)c(C)c2c1
105 | O=C1CN(Cc2cccc(Br)c2)S(=O)(=O)c2ccccc2N1Cc1cccc(F)c1
100 | CCOC(=O)c1sc2nc(CC(=O)OC)nc(NCC3CCCN3CC)c2c1C (stereo not drawn)
116 | Oc1ccc(C2Nc3cccc4cccc(c34)N2)c(O)c1
105 | Clc1ccc(-c2nnc(-c3nc(NCc4ccccc4)c4ccccc4n3)o2)cc1
104 | CCOC(=O)c1cc2c(c(CSc3nc4ccccc4c(=O)n3NC(=O)c3cccs3)c1)OCOC2
99 | Cc1ccnc(NC(=O)C2CCN(S(=O)(=O)c3cc(-c4noc(C5CC5)n4)ccc3C)CC2)c1
106 | COc1ccc(N2CCN(C(=O)c3sc4ncn(CC(=O)Nc5ccc(C)c(Cl)c5)c(=O)c4c3C)CC2)cc1
115 | Cc1cc(N2CCCCC2)nc(N2CCN(C(=O)C3CCCCC3)CC2)n1
110 | CCCCN(C)C(=O)c1sc2ncn(CCOCC)c(=O)c2c1C
110 | CCOC(=O)c1ccc(N=c2ssc3c2-c2cc(C)c(C)cc2NC3(C)C)cc1

Later entries:
GIV-Gai inh | Molecule
103 | COc1ccc(S(=O)(=O)Nc2cc(C(=O)N3CCOCC3)ccc2N2CC3CC(C2)c2cccc(=O)n2C3)cc1 (stereo not drawn)
109 | O=C1CC(c2ccccc2Br)c2c(ccc3ccccc23)N1 (stereo not drawn)
100 | COc1ccc(Cl)cc1NC(=O)Nc1cccc(OCc2cc(=O)n3cccc(C)c3n2)c1
110 | COCCCNC(=O)C(=O)Nc1cc(C)ccc1C
101 | CC1CCN(S(=O)(=O)c2cccc(C(=O)Nc3ccccc3C(=O)N3CCN(c4ccccc4)CC3)c2)CC1
107 | O=C(Cc1c(Sc2ccccc2)c2ccccc2n1Cc1ccccc1)Nc1ccc(Cl)cc1
101 | CCSc1nc2ccc(NS(=O)(=O)c3cccc4nsnc34)cc2s1
105 | O=C(CCc1nc(CS(=O)(=O)c2ccccc2)no1)NCC1CCCO1 (stereo not drawn)
103 | COc1cc(NC(=O)Nc2nnc(CC(=O)N3CCc4ccccc43)s2)cc(OC)c1
113 | Cn1c(=O)n(CCC(=O)N2CCCCC2)c(=O)c2cc(S(=O)(=O)N3CCOCC3)ccc21
98 | COc1ccc(-n2ccc(=O)c(-c3nc(-c4ccc(C)cc4)no3)n2)cc1
101 | CCn1c(SCC(=O)Nc2cccc(C)c2C)nnc1-c1nc(-c2ccc(OC)cc2)no1
102 | CCN(CC)C(=O)CSc1nnc2n(Cc3ccc(C)cc3)c(=O)c3c(cnn3C)n12
102 | CN(C)S(=O)(=O)c1ccc(-c2nnc(C(=O)NCc3ccccn3)o2)cc1
104 | CCN1CCN(c2nc(-c3ccccc3F)nc3ccccc23)CC1
116 | Cc1c(Br)c(C(F)(F)F)nn1CC(=O)Nc1sc2c(c1C#N)CCC(C)C2 (stereo not drawn)
104 | COc1ccc(Br)cc1CNC(=O)C1CCN(S(=O)(=O)N2CCCCC2)CC1
92 | O=C(N1CCC(n2nc(-c3ccsc3)ccc2=O)CC1)C1(c2ccccc2)CC1
105 | COc1cc(C2Nc3ccc4ccccc4c3C3=C2C(=O)CC(C)(C)C3)ccc1OC(C)C(=O)O (stereo not drawn)
102 | O=C(Nc1ccc2c(c1)OCO2)c1nnc(C2CCN(S(=O)(=O)c3ccccc3)CC2)s1
110 | CCOC(=O)CSc1nc2ccc([N+](=O)[O-])cc2s1
102 | COc1cc(OC)cc(N2C=C(C#N)S(=O)(=O)c3ccc(F)cc32)c1
100 | COC(=O)c1cc(Nc2ccc3c(c2)OCO3)c2cc(Cl)ccc2n1
107 | COc1cc(OC)c(NC(=O)CCSc2nc3c(=O)n(C)c(=O)n(C)c3n2C)cc1Cl
102 | COc1ccc(/C=C(/NC(=O)c2ccco2)C(=O)NCCc2c[nH]c3ccccc23)cc1OC
110 | O=S(=O)(c1ccc(-c2cnc(C3CCC3)o2)s1)N1CCN(c2ccccc2F)CC1
157 | COc1cc(/C=C2\C(=O)NC(=S)N(c3ccc(Cl)cc3)C2=O)cc(OC)c1O
118 | COc1ccc(OC)c(-n2c(=S)[nH]c3c(sc(=S)n3-c3ccc(C)c(C)c3)c2=O)c1
109 | COc1ccc(CNC(=O)Cn2ccc3c(SCc4ccc(F)cc4)nccc32)cc1OC
106 | COc1ccc(C2C(N3C(=O)c4c(Cl)c(Cl)c(Cl)c(Cl)c4C3=O)C(=O)N2c2ccc(Br)cc2)cc1Br (stereo not drawn)

Sorted by SMILES length (descending): part of the list above.
GIV-Gai inh | Molecule
107 | COc1cc(OC)c(NC(=O)CCSc2nc3c(=O)n(C)c(=O)n(C)c3n2C)cc1Cl
157 | COc1cc(/C=C2\C(=O)NC(=S)N(c3ccc(Cl)cc3)C2=O)cc(OC)c1O
102 | CN(C)S(=O)(=O)c1ccc(-c2nnc(C(=O)NCc3ccccn3)o2)cc1
100 | COC(=O)c1cc(Nc2ccc3c(c2)OCO3)c2cc(Cl)ccc2n1

Following part
GIV-Gai inh | Molecule
102 | COC(=O)c1nnn(-c2nonc2N)c1CSc1nc2ccccc2s1
108 | O=C(Nc1cccc(C(F)(F)F)c1)c1ccc(F)c(S(=O)(=O)N2CCN(c3ccc(F)cc3)CC2)c1
111 | CCc1onc(C)c1C1CCCN1Cc1sccc1C (stereo not drawn)
113 | CCn1c(SCc2nc(-c3ccccc3C)oc2C)nc2c(=O)[nH]cnc21
108 | CCC(=O)Nc1cccnc1-c1ccc(C(=O)NCc2ccccc2Cl)cc1
99 | Cc1c(C(=O)N2CCC(C(=O)N3CC=C(c4ccccc4)CC3)CC2)sc2nc[nH]c(=O)c12
104 | Cc1cc(C(=O)Oc2ccccc2NC2=NS(=O)(=O)c3ccccc32)ccc1[N+](=O)[O-]
100 | O=C(NC1CC1)c1cccc(-c2cc(N3CCCC3)ncn2)c1
103 | COc1ccc(C2C3=C(Nc4ncnn42)c2cc(Cl)ccc2OC3c2cccs2)cc1 (stereo not drawn)
109 | COc1ccc(-c2cc(C(F)(F)F)n3nc(C(=O)NCc4ccccc4)cc3n2)cc1OC
102 | Cc1cccn2c(=O)c(C(=O)NC3CCCC3)cnc12
103 | CC(C)CCCC(C)C1CCC2C3CC=C4CC(OC(=O)c5cccnc5)CCC4(C)C3CCC12C (stereo not drawn)
103 | Cc1cc(C)cc(NS(=O)(=O)c2c(C)sc(C)c2-c2cc(C(F)(F)F)on2)c1
106 | Cc1c(C(=O)Nc2c(F)cc(F)cc2Br)sc2ncn(CC(=O)N3CCC(C)CC3)c(=O)c12
106 | Cc1ccc(NC(=O)CSc2nc3ccccc3c(=O)n2NC(=O)c2ccc(F)cc2)cc1
99 | Cc1ccc(-c2noc(C3CC3)n2)cc1S(=O)(=O)NC(C)C(=O)N1CCOCC1 (stereo not drawn)
115 | COCCn1cnc2sc(C(=O)N3CCCCCC3)c(C)c2c1=O
110 | CCOC(=O)c1c(C)oc2ccc(N(C(=O)c3ccc(C)cc3)S(=O)(=O)c3ccc(C)cc3)cc12
101 | CCc1ccc(NC(=O)Nc2ccc(SCc3nnc(-c4ccccc4)o3)cc2)cc1
109 | CCOC(=O)C1=C(C)N=c2s/c(=C\c3ccc4c(c3)OCO4)c(=O)n2C1c1ccc(OC)cc1OC (stereo not drawn)
109 | O=C(CSc1nc2ccccc2c(=O)[nH]1)Nc1ccc(Cl)cc1
104 | CC1CCOC2(O1)C(=O)Nc1ccccc12 (stereo not drawn)
101 | CC(C)(C)Nc1c(-c2ccc(F)cc2)nc2sc3ccccc3n12
103 | CCC(=O)Nc1cccc(-c2noc(C3CCN(C(=O)c4ccc(C(C)(C)C)cc4)CC3)n2)c1
110 | Cc1nc(SCC2=C(C(=O)OC(C)C)C(c3cccs3)C(C#N)=C(N)O2)c(C#N)c(C)c1C (stereo not drawn)
103 | O=C(CSc1nc2[nH]ncc2c(=O)n1-c1ccc(Cl)cc1)Nc1ccc(Br)cc1F
100 | CCCS(=O)(=O)c1nc2ccc(NS(=O)(=O)c3ccc(F)cc3F)cc2s1
105 | Cc1ccc(S(=O)(=O)Nc2ccc(Sc3c(C)c(C)nc4ncnn34)cc2)cc1
105 | COc1ccc(NC(=O)CSc2nc3n[nH]c(C)c3c(=N)n2-c2ccc(Br)cc2)c(OC)c1
100 | COc1ccc(-c2cn3cccc(C)c3n2)cc1F

Six entries already listed, sorted by the value under GIV-Gai inh, falling.
compound,GIV-Gai inh
CCc1onc(C)c1C1CCCN1Cc1sccc1C (stereo not drawn),111
COc1ccc(NC(=O)CSc2nc3n[nH]c(C)c3c(=N)n2-c2ccc(Br)cc2)c(OC)c1,105
CC(C)CCCC(C)C1CCC2C3CC=C4CC(OC(=O)c5cccnc5)CCC4(C)C3CCC12C (stereo not drawn),103
CC(C)(C)Nc1c(-c2ccc(F)cc2)nc2sc3ccccc3n12,101
CCCS(=O)(=O)c1nc2ccc(NS(=O)(=O)c3ccc(F)cc3F)cc2s1,100
Cc1ccc(-c2noc(C3CC3)n2)cc1S(=O)(=O)NC(C)C(=O)N1CCOCC1 (stereo not drawn),99

Remaining list, next part.
GIV-Gai inh | Molecule
118 | COCCNC(=O)c1cc(NS(=O)(=O)c2ccc(Cl)cc2)ccc1N1CCNCC1
99 | O=c1oc(-c2cccc3ccccc23)nc2sc3c(c12)CCCC3
105 | O=C(CSc1nc(NCc2ccccc2)c2ccccc2n1)N1CCN(c2ccccc2)CC1
101 | O=C(NCc1cccc(Br)c1)c1ccccc1NC(=O)c1nsc2ccccc12
110 | CC(=O)Oc1ccc(N2C(=O)C3C4c5ccccc5C(C(C)=O)(c5ccccc54)C3C2=O)cc1 (stereo not drawn)
102 | CC1CCC(NC(=O)C2CCN(c3ccc4cc(S(=O)(=O)N5CCCCC5)ccc4n3)CC2)CC1 (stereo not drawn)
109 | CCCC(=O)Nc1cc(Cl)ccc1OCc1cc(=O)n2oc(C)cc2n1
97 | O=C(NCCc1csc(-c2ccccc2)n1)[C@H]1CCCN1S(=O)(=O)c1cccc2nsnc12
107 | CCOc1ccc(NC(=O)CSC2=C(C#N)C(c3ccccc3)C(C(=O)Nc3ccccc3)=C(C)N2)cc1 (stereo not drawn)
110 | COc1ccc(CN2C(=O)C3C(c4ccc(Br)cc4)OC4(C(=O)c5ccccc5C4=O)C3C2=O)cc1 (stereo not drawn)
93 | Cc1c(C(=O)Nc2cccc(Cl)c2)sc2ncn(CC(=O)N3CCN(c4ccccn4)CC3)c(=O)c12
103 | COc1ccc(/C=C(\NC(=O)c2ccc(C)cc2)C(=O)NCc2ccco2)cc1
105 | CCc1ccc(NC(=O)CSc2nc3ccccc3c(=O)n2CC2CCC(C(=O)NCc3ccco3)CC2)cc1 (stereo not drawn)
113 | COc1ccc(/C=c2\sc3nc(-c4ccccc4)nn3c2=O)cc1
106 | O=S(=O)(c1ccc2c(c1)-c1oncc1CO2)N1CCc2ccccc2C1
101 | O=C(CSc1n[nH]c(-c2ccccc2Cl)n1)NCC1CCCO1 (stereo not drawn)
102 | O=C(OCCN1CCCCC1)C1(c2ccccc2)CCOc2ccccc21 (stereo not drawn)
105 | CCCS(=O)(=O)c1c(S(=O)(=O)CCC)c2ccc(C(N)=O)cn2c1C(=O)c1ccccc1
98 | CCNc1nc(C(N)=O)c(NC(=O)c2cc(-c3ccc(OC)cc3)nc3ccccc23)s1
109 | COc1ccc(N2CC(O)(c3ccccc3)[N+]3=C2CCCC3)cc1 (stereo not drawn)
102 | CSC1=NC(=Nc2cccc(C)c2)C2(CCCCC2)N1c1cccc(C(F)(F)F)c1
104 | CNC(=O)c1cc2c(cc1C)OCCCO2
111 | NS(=O)(=O)c1ccc(CCNC(=O)c2ccc3c(=O)n(Cc4ccc(Cl)cc4)c(=S)[nH]c3c2)cc1
